TRPML1 ag = human mucolipin-1 channel agonism; 410,000 tested, 0.12% active; Q9GZU1; activation, % (test concentration not listed); TRPML1-expressing cells, Ca2+ dye fluorescence, FDSS; host cell line not named in the record; reference of the full effect not given here; in the data active = activation above about 50%; inconclusive = about 30% to 50%; inactive = below about 30%; note: 0% is about no effect; the text of the record puts the active cut at 80%
Target sequence (Q9GZU1 whole entry, looked up): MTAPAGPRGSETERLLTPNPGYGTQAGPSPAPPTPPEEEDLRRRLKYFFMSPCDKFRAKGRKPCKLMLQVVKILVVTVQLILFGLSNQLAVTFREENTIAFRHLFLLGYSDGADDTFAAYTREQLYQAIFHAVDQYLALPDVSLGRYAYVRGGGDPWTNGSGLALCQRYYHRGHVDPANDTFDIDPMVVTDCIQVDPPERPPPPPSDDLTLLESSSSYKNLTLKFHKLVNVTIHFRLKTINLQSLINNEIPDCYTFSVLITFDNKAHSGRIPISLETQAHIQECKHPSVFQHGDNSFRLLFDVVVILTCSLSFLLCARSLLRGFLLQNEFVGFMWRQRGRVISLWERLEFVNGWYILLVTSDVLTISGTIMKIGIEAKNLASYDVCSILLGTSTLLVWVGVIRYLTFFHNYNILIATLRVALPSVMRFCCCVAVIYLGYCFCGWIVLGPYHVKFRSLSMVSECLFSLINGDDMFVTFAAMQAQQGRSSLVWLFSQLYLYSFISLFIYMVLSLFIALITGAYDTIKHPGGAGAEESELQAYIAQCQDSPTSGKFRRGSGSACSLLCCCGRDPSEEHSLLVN
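In this qHTS format, compounds were pin-transferred onto Ca8-dye-loaded TRPML1-DL cells induced with Tet overnight, and intracellular Ca2+ fluorescence was recorded kinetically for 110 s after a 10 s baseline. A subsequent 4uM final 54-4 (EC80) addition followed by a second 110 s read served as the antagonist phase.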
D2 ag = activates the human D2 dopamine receptor; 360,000 tested, 0.084% active; activation, % (test concentration not listed); DiscoveRx PathHunter D2 beta-arrestin, luminescence, 90 min; 100% = 57 uM dopamine signal; P14416; in the data active = activation above about 40%; inconclusive = about 15% to 40%; inactive = below about 15%; note: compound concentration not given in the record; the text of the record calls up to 30% inactive
Target sequence (P14416 whole entry, looked up): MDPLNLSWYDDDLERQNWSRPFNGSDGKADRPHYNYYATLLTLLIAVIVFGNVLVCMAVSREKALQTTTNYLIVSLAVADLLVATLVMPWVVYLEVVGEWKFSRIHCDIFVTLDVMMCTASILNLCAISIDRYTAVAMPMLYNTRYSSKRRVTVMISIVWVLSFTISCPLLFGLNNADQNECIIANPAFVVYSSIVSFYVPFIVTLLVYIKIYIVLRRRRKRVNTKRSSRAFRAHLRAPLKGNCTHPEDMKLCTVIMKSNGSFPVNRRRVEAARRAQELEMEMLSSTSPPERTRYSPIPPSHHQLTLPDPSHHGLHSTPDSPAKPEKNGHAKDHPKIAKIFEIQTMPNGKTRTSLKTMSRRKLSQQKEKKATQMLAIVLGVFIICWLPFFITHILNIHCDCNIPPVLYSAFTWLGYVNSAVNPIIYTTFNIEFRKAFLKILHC
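DiscoveRx PathHunter D2 beta-arrestin cells (2,100/well) attached overnight, then compound-stimulated 90 min at 37 C in HBSS/10 mM HEPES/0.1% Tween-20 buffer; beta-galactosidase complementation read by luminescence after 1 h at ambient temperature. Dopamine 57 uM final (EC100) as control.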
CtBP-E1A blk = CtBP/E1A binding inhibition; AlphaScreen GST-E1A/His-CtBP binding, 1536-well; hits give low values; control for the full effect not named in the record; activity change, % (concentration not given with the values); 340,000 tested, 0.49% active; AID 651724; in the data active means activity change below about -65%; inconclusive means about -30% to -65%; inactive means above about -30%; note: % is set by controls: 0 for no effect and ±100 for the full control effect
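In 5 uL wells, 23 nL compound meets equimolar GST-E1A and His-CtBP (5X stock 125 nM each) for 2 h, 37 °C. Beads (5X, 50 ug/mL) then 1 h, 37 °C, dark.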
PINK1 expr mod = modulators of PINK1 expression | PINK1 immunofluorescence, high-content cytometry, 24 h | Potency, µM (series often up to 76.6 µM), for the others: top-dose activation (PINK1 increase), usual class: activators | 410,000 tested, 0.2% active | AID 624263; active = well fitted activation curve with a large enough effect; inconclusive = small, poorly fitted or top-dose-only effect; inactive = flat fitted curve, though single readings scatter; cell line not stated here;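 note: potency is the fitted concentration of half-maximal effect; % of control where 0% means no effect; nearly all actives have a fitted effect of over 65% in size; a mitochondrial uncoupler was the plate control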
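Decision-based qHTS: stable cells, 24 h exposure to five compound concentrations, CCCP as control. Fixed cells stained for PINK1 plus nuclear, mitochondrial and cell markers, cytometer read.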
TRPML1 inh = human mucolipin-1 channel inhibition. Q9GZU1. TRPML1-inducible cells, Ca2+ dye fluorescence, FDSS; hits give low values; inhibition of EC80 agonist-evoked calcium signal. activity change, negative = inhibition, % (no concentration beside the values). 390,000 tested, 0.02% active; in the data active means activity change below about -50%; inconclusive means about -30% to -50%; inactive means above about -30%;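 note: stimulus is agonist 54-4 at its EC80 concentration; % is set by controls: 0 for no effect and ±100 for the full control effect; compound concentration not given in the record; the text of the record puts the active cut at -80%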
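Tet-induced TRPML1-DL cells loaded with Ca8 no-wash calcium dye were read kinetically on FDSS. Compound addition was followed by EC80 agonist 54-4 (4 uM final); inhibition was read over 110 s.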
Six1-Eya2 inh = inhibitors of human Six1/Eya2 interaction; AlphaScreen GST-Six1/His-Eya2 binding, biochemical; hits give low values; control for the full effect not named in the record; activity change, % (concentration not given with the values); 360,000 tested, 0.56% active; AID 651725; in the data active = activity change below about -65%; inconclusive = about -30% to -65%; inactive = above about -30%; note: % is set by controls: 0 for no effect and ±100 for the full control effect
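Six1/Eya2 binding was read as AlphaScreen signal after compounds were pinned into GST-Six1 plus His-tagged Eya2 (5X stock 250/500 nM) in pH 8.0 Tris/NaCl/TCEP buffer, beads added, then incubated 1 h, 37 C, dark.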
Active calls of the source: *; ? = inconclusive; . = not tested or not shown; & = joins results of further samples; [ ] = remark or other dose.

SMILES	TRPML1 ag	D2 ag	CtBP-E1A blk	PINK1 expr mod	TRPML1 inh	Six1-Eya2 inh
Cc1ccc(CN(C)C(=O)c2ccccc2Oc2ccccc2)o1	-1.0	-4.9	2	-4.1%	4	-1
CCOC(=O)c1c(NC(=O)c2ccc(S(=O)(=O)N3CCOCC3)cc2)sc2c1CCN(C(C)C)C2	-0.7	-3.9	-2	2.4%	-2	-2
Cc1ccc([C@H]2N[C@]3(CCCN(Cc4ccc(Cl)cc4)C3=O)[C@H]3C(=O)N(Cc4ccccc4)C(=O)[C@@H]23)cc1	0.3	-9.4	-18	0.8%	-16	-17
CC(C)CC(=O)N=C1SC2CS(=O)(=O)CC2N1Cc1ccccc1 (stereo not given)	2.6	-2.9	-7	3.7%	-1	5
Cc1nn(-c2ccccc2)c(OC(=O)c2cccs2)c1S(=O)(=O)c1ccccc1	-0.9	-0.8	-6	-2.3%	-7	0
Cn1c(=O)cc(OCCCC(=O)NCc2ccco2)c2ccccc21	0.8	0.6	-12	-1.1%	4	-3
CCOc1ccc2nc(NS(=O)(=O)c3ccc(NC(C)=O)cc3)sc2c1	0.3	-2.1	-3	-0.7%	12	-2
CCc1cc(C(=O)O)c(NC(=O)/C=C/c2ccc(OC)c(OC)c2)s1	3.8	-1.5	.	1.5%	-10	4
CCOc1ccccc1C(=O)Nc1cc(C)ccc1NC(=O)c1ccco1	1.5	-3.5	-19	0.2%	7	-3
Cc1cc(C(=O)COC(=O)c2n[nH]c3ccccc23)c(C)n1C	0.0	-0.6	-24	2.0%	19	-14
Cc1noc(C)c1C(=O)Nc1ccc(Cl)cc1C(F)(F)F	0.3	0.7	6	3.2%[38.3 µM]	-8	7
CCc1ccc(OCCOCC(O)CNC2CCCC2)cc1 (stereo not given)	0.1	-5.0	9	-0.1%	3	12
Nc1nncn1C(=O)CCCN1C(=O)c2ccccc2C1=O	1.3	1.2	-1	1.5%	-15	2
O=c1c2ccccc2ncn1-c1ccc([N+](=O)[O-])cc1[N+](=O)[O-]	-0.8	15	-11	30%	-8	-6
CCOC(=O)CSc1ccc(S(=O)(=O)N(C)C2CCCCC2)cc1[N+](=O)[O-]	0.6	-0.3	7	.	0	-22
Cc1ccccc1CS(=O)(=O)c1nnc([C@H](Cc2ccccc2)NC(=O)OC(C)(C)C)o1	5.6	-1.8	-4	25%[38.3 µM]	-7	4
c1ccc(-c2nc(NCC3CCCO3)c3oc4ccccc4c3n2)cc1 (stereo not given)	1.8	4.3	7	-6.0%[38.3 µM]	33	1
Cc1cc(O)c(C=O)c2c1C(=O)Oc1c(CO)c(O)c3c(c1O2)C(O)OC3=O (stereo not given)	.	-5.6	-4	0.1%	.	-80*
CC(=O)N1c2ccc(S(=O)(=O)NCC3CCC(C(=O)Nc4ccccc4C)CC3)cc2CC1C (stereo not given)	-0.4	.	.	7.4%	12	.
O=C(COC(=O)/C=C/c1ccccc1[N+](=O)[O-])NNC(=O)c1ccc(F)cc1	-0.3	-2.3	-1	0.0%	18	1
Cc1cccc(N2C(=S)N=C(Nc3c(C)cccc3C)C23CCOC(C)(C)C3)c1 (stereo not given)	-0.4	-4.2	4	4.7%	-12	7
CC(C)CCNC(=O)c1ccc2c(c1)nc1n2CCCCC1	0.3	.	.	1.1%	16	.
COc1ccc(-c2oc3ccccc3c2C(=O)OCc2ccccc2OC)cc1	0.2	-2.1	27	2.5%	21	40
COc1ccc(NC(=O)CSc2nnc(-c3cccs3)n2Cc2ccco2)cc1OC	1.7	-0.1	-6	1.8%[38.3 µM]	-5	-11
CC(=O)c1nn(-c2ccc(Br)cc2)cc1C(=O)c1ccccc1	2.2	0.1	-6	-0.5%	11	6
Cc1ccc(NC(=O)CSc2nc3ccc(NC(=O)CCc4ccccc4)cc3s2)cc1	-0.9	.	.	0.0%	-2	.
COc1ccccc1C(=O)N1CC2(C)CC1CC(C)(C)C2 (stereo not given)	1.3	-1.8	3	-0.8%	0	-3
CC(C)(Cc1ccccc1)NC(=O)C(=O)c1cn(CC(=O)N2CCOCC2)c2ccccc12	0.1	-3.0	22	4.1%	-4	-9
Cc1ccccc1Nc1nnc(SCc2cc([N+](=O)[O-])cc3c2OCOC3)s1	1.0	0.1	-21	0.4%[38.3 µM]	-10	-17
COc1ccc([N+](=O)[O-])cc1NS(=O)(=O)Cc1ccccc1	0.4	-4.1	14	0.0%	5	4
CCSc1nc(N2CCOCC2)c2c(c1C#N)CC(C)(C)N(C)C2	0.8	-2.2	0	1.2%	-17	3
CCc1ccc(N(C(=O)c2csnn2)C(C(=O)NC(C)(C)CC)c2ccccn2)cc1 (stereo not given)	0.7	-1.7	.	0.4%	3	4
Cc1cccc(C(=O)NC2CCN(C(=O)Nc3ccc(F)cc3)CC2)c1	0.2	-2.8	1	-0.3%	-4	-3
COc1cc(CNCCSc2nnnn2C)ccc1OCc1ccccc1C	-0.8	.	.	0.5%	-11	.
Cn1c(Cn2c(=O)sc3ccccc32)nnc1SCc1ccccn1	2.5	-2.6	2	-2.2%[38.3 µM]	8	0
CC(C)C1C(=O)N(Cc2cn(CCC3OCCCO3)nn2)CCS(=O)(=O)N1Cc1ccc(-c2ccc(F)nc2)cc1 (stereo not given)	0.1	-0.2	5	2.2%	1	1
Fc1ccc(N=Cc2ccc[nH]2)cc1	0.0	-1.5	8	2.7%	4	13
Cc1cc(=O)oc2cc(OCC3CC(c4ccc(Cl)cc4)=NO3)ccc12 (stereo not given)	1.3	0.5	42	?	18	18
CCOc1ccccc1NC(=O)CSc1ncc(S(=O)(=O)c2ccc(C(C)(C)C)cc2)c(=O)[nH]1	-0.5	.	.	0.7%	-23	.
CCn1cc(C(=O)OCC(=O)N2C(C)CCCC2C)c(=O)c2ccc(C)nc21 (stereo not given)	-1.2	-4.3	-11	0.0%	-13	7
CC(C)C(=O)NC(NC(=S)Nc1ccc(S(N)(=O)=O)cc1)C(Cl)(Cl)Cl (stereo not given)	0.0	-0.9	0	0.5%	-5	9
CC1=NN(c2cccc(C(=O)O)c2)C(=O)/C1=C\C=C/c1ccccc1	4.4	-4.3	2	-1.5%	2	4
COc1ccccc1NC(=O)CN1CCN(C(=O)c2ccco2)CC1	-0.9	6.8	6	-2.5%	60	10
Brc1ccc(COc2ncnc3ccccc23)cc1	0.3	-1.6	-1	1.6%	-8	4
CN(CC(=O)NC1CCN(Cc2ccccc2)CC1)S(=O)(=O)c1ccc(Cl)cc1	0.1	2.0	.	1.2%	1	0
Cc1nc2nc(C)c(CCC(=O)NCc3ccc4c(c3)OCO4)c(C)n2n1	-0.6	-0.8	-1	4.0%[38.3 µM]	12	1
CCc1nnc(NC(=O)CCN2C(=O)c3ccccc3S2(=O)=O)s1	5.6	-2.1	0	?	-1	4
Cc1ccccc1N=Nc1c(O)n(C)c2ccccc12	-0.2	-3.7	.	-0.4%	-22	16
COc1cccc2c1Oc1ncccc1N(C(=O)CCC(=O)NCc1ccc(C)cc1)C2	4.1&1.7	-3.2	.	-1.6%&-0.2%	2&-15	-2
O=C(NNC(=O)c1ccc2ccccc2n1)c1ccc(O)cc1	2.2	?	-27	1.5%	1	-12
COc1cccc(CN(Cc2ccco2)S(=O)(=O)c2ccc(S(=O)(=O)NCc3ccccc3)cc2)c1OC	3.2	-3.2	0	-4.3%[38.3 µM]	3	-4
CCOC(=O)c1nc(Nc2ccc(OC)cc2)c2ccccc2n1	0.8&1.4	-1.1	?	0.3%&3.8%	2&-17	-26
Cc1ccc(OCC(=O)Nc2nnc(S(=O)(=O)N3CCCCCC3)s2)cc1C	-0.4	-0.9	2	4.6%	28	1
CCOc1ccc(Cn2nnc(C(=O)Nc3cccc(SC)c3)c2N)cc1	1.6	.	.	9.4%	8	.
CCn1c(=O)c2ccccc2n(CC(=O)NC2CCCCC2)c1=O	2.0	0.2	0	-3.3%	3	8
Cn1c(=O)cc(SCC(=O)N2CCN(c3ccccc3F)CC2)c2cc(Cl)ccc21	-0.5	.	.	2.8%	14	.
CCOC(=O)N1CCc2c(sc(NCc3cccc(F)c3)c2C(=O)Nc2ccc(OC)cc2)C1	-0.7	.	.	3.0%	-15	.
O=C(c1cccc(-c2cccc3nccn23)c1)N1CCOCC1	-0.7	-3.1	6	0.9%	.	-3
COc1ccc(NC(=S)N(CCc2c(C)[nH]c3ccc(C)cc23)Cc2cccs2)cc1	-0.2	0.2	-22	2.4%	-10	-23
CC1(C)CC(=O)C=C(c2ccc(COC(=O)Cc3ccccc3)cc2)C1=O	0.6	-7.2	-3	0.9%	-13	-13
New compounds follow:
SMILES	TRPML1 ag	D2 ag	CtBP-E1A blk	PINK1 expr mod	TRPML1 inh	Six1-Eya2 inh
O=C(CC1Sc2ccccc2NC1=O)OCC(=O)N1CCc2ccccc21 (stereo not given)	-0.7	-1.2	-4	-0.5%	1	-3
Cc1ccc2c(c1)C(O)(CC(=O)c1cccnc1)C(=O)N2 (stereo not given)	-0.3	-6.5	2	3.9%	-4	15
COc1ccc(Cc2c(-c3ccco3)nc3ccc(Br)cn23)c(C)c1	-0.1	-7.1	-2	11%	-8	-11
O=C(c1cc(-c2ccc(O)cc2)on1)N1CCCC1	0.1	9.1	3	-0.3%	6	-3
COC(=O)c1ccccc1NC(=S)N(Cc1ccc2c(c1)OCO2)Cc1cc2ccc(OC)cc2[nH]c1=O	0.5	-4.1	-12	1.6%	10	-14
Cc1nnc(SCC(=O)Nc2ncc3c(n2)CC(c2ccccc2)CC3=O)s1 (stereo not given)	0.7	-1.0	-12	-3.5%	-25	13
CCOC(=O)c1cc(-c2ccc(C)cc2)n(CC(=O)Nc2ccc(OC)cc2OC)c1C	-1.0	.	.	5.3%	-7	.
CC(=O)Nc1ccc(OCCCN2CCC(C(O)(c3ccccc3)c3ccccc3)CC2)cc1	2.7	.	3	0.2%	.	10
O=C1CN(C(=O)/C=C/c2ccc(Cl)cc2Cl)CCN1	-0.6	2.6	7	0.1%	6	-1
O=C(/C=C/c1ccc(O)c(O)c1)NC(=O)c1ccccc1O	.	-4.2	-13	-0.1%	.	-19
COc1ccc(OC)c(CNC(=O)CN(c2ccc(C)cc2)S(=O)(=O)N(C)C)c1	-0.8	.	.	1.4%	-5	.
O=C(CC(=O)c1ccccc1)Nc1ccccc1C(F)(F)F	2.6	-5.0	-12	3.8%	30	0
CC(=O)N1N=C(N)SC12CCCC2	-0.5	0.1	-1	0.5%	11	1
